Ba CapD inh: blocks the Bacillus anthracis CapD enzyme; purified CapD enzyme, fluorescence intensity read-out; stronger effect = lower value; some hits fall short of the stated cut; 0.23% of 140,000 active; z-score (test concentration not listed); AID 492967;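 active means z-score under -4 in either of two replicates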;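 further: stock transfer was 100 nL into about 40 µL; score is relative to mean and spread of the plate; one replicate is shown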
AID504770: E. coli YBA685 growth inhibition, screen for V. cholerae RctB inhibitors | E. coli YBA685 rctB-dependent plasmid, OD600 growth, 3 h; stronger effect = lower value | z-score (concentration not given with the values) | 0.27% of 130,000 active | AID 504770;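 active means z-score under -2 on both plates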;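 further: wells of about 30 µL received 100 nL stock; score is relative to mean and SD of the test wells; the first replicate is given; strong numbers were not always called active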
* hit, by the source's call; i = inactive; · = no result given.

SMILES	Ba CapD inh	AID504770
COc1ccc(CC(=O)n2nc(-c3ccc(Cl)cc3)nc2NCc2ccco2)cc1OC	-0.55	-0.8
CC1=C(n2nnc([N+](=O)[O-])n2)C(c2cccnc2)C(C#N)=C(N)O1 (stereo unspecified)	-1.2	·
COc1ccc(N(CC(=O)Nc2ccc(Cl)cc2C)S(=O)(=O)c2ccc(C)c([N+](=O)[O-])c2)cc1	-0.55	·
O=[N+]([O-])c1ccc2c(c1)C=C1CCCCC1(N1CCCC1)O2 (stereo unspecified)	0.29	·
CCN(CC)CCNc1ncnc2c1cnn2-c1ccccc1	0.14	-0.6
Cc1ccc(Cn2ccc(NC(=O)C3C4CCC(C4)C3C(=O)O)n2)cc1 (stereo unspecified)	0.58	-1.1
O=C(Nc1scc2c1c(=O)oc1ccccc12)c1ccccc1	6.5	0.35
CC(=O)NC1=NC(=O)/C(=C/c2cc([N+](=O)[O-])c(N3CCOCC3)cc2N2CCOCC2)S1	-0.4	·
CC(C)Cn1cc(NC(=O)N2C(C)CCCC2C)c2ccccc2c1=O (stereo unspecified)	20	-0.65
CCN1C(=O)/C(=C2\SC(=S)N(c3ccc(OC)cc3)C2=O)c2ccccc21	-1.1	-0.5
CCC1CCCCN1C(=O)COC(=O)C1=COCCO1 (stereo unspecified)	·	-1
O=C(NCC1CCCO1)c1ccc(N2CCCCS2(=O)=O)cc1 (stereo unspecified)	·	0.05
CSC(=Nc1ccc(C)c(C)c1)NC#N	-0.53	-0.75
Cn1c(N)c(C(=O)c2cccc(S(=O)(=O)N3CCc4ccccc43)c2)c(=O)[nH]c1=O	·	0.05
COc1cc2ncnc(NC(C)c3ccccc3)c2cc1OC (stereo unspecified)	15	-0.5
N=c1n(CCCOc2ccccc2)c2ccccc2n1CC(N)=O	-0.21	1.6
O=C(O)C1C2CCC(O2)C1C(=O)Nc1cnn(Cc2ccccc2)c1 (stereo unspecified)	-0.12	-0.7
COC(=O)c1ccc(-n2c(/C=C/c3cccc([N+](=O)[O-])c3)nc3ccccc3c2=O)cc1	0.02	·
Cc1ccc(N2C(=O)c3n[nH]c(C)c3C2c2ccccc2)cc1 (stereo unspecified)	0.25	-0.8
C=CCC1CC=CC(C)N1C(=O)OCc1ccccc1 (stereo unspecified)	·	-0.35
CC(C(=O)NNC(=O)CCc1nc2ccccc2n1C)n1nnc(-c2cc(C(F)(F)F)cc(C(F)(F)F)c2)n1 (stereo unspecified)	-0.26	·
CCN1C(=O)c2ccccc2Sc2ccc(C(=O)N3CCC4(CC3)OCCO4)cc21	-0.5	-0.65
O=C(OCC(=O)N1CCCCCC1)c1ccc2[nH]c3c(c2c1)CCCC3	·	-0.35
Cc1nc2ccn(Cc3ccccc3)c(=O)c2cc1C(=O)N1CCN(c2ccccc2)CC1	1.8	-1.3
Cc1ccc(-c2cn3c4c(sc3n2)CCCC4)cc1	-0.015	1.6
SMILES	Ba CapD inh	AID504770
O=C1c2ccccc2CN1CCSC(=S)N1CCSCC1	-1.7	2.7
CC(C)(C)CNC(=O)c1ccccc1O	85	-0.45
CCN1C(=O)c2ccc(C(=O)Nc3cc(OC)c(OC)cc3C(=O)O)cc2C1=O	-0.42	-1.1
CC(C)Oc1ccc(CNCC2(O)CCOC(C)(C)C2)cc1 (stereo unspecified)	0.68	-0.1
CN(CC(=O)NCc1ccccc1)S(=O)(=O)c1ccc2c(c1)c(=O)n(C)c(=O)n2C	3.4	-1.4
COc1ccc(C(=O)N2CCC(C(=O)Nc3ccc(C)cc3)CC2)cc1	-0.43	-0.7
COc1ccc(-c2csc3ncnc(Cl)c23)cc1	0.64	1.3
COC(CN(C)C(=O)c1ccc2c(c1)N(Cc1ccc(Cl)cc1)C(=O)c1ccccc1S2=O)OC (stereo unspecified)	-0.01	0.1
CCc1ccccc1NC1c2ccccc2C(=O)N1Cc1ccco1 (stereo unspecified)	-0.26	-0.45
O=C(NCc1ccc2c(c1)OCO2)C1CC(=O)N(C2CCCCCCC2)C1 (stereo unspecified)	0.15	-0.4
COc1ccc(C)cc1NC(=O)COC(=O)c1c(C)noc1C	·	-0.8
CSc1sc(C#N)c(C)c1C(C)=O	-1.2	·
O=C(Nc1cccc(NC(=O)c2c(F)cccc2F)n1)c1c(F)cccc1F	0.58	-0.55
Cc1ccc(OCC(=O)Nc2ccccc2C(N)=O)cc1	1.1	-0.45
Cc1ccc(NC(=O)Cn2c(=O)c(C)nc3ccccc32)cc1	2.2	0.4
Clc1ccc(-c2csnn2)cc1	0.44	1.6
O=C(CCN1C(=O)c2ccccc2C1=O)N1CCC2(CC1)OCCO2	-0.67	·
O=c1ncn(-c2cccc(Cl)n2)[nH]1	0.045	-0.25
N#CCC(=O)N1CCNCC1	·	0.35
CCOC(=O)c1ccccc1NC(=O)c1sc2ncn(CC(=O)Nc3ccc(C)c(Cl)c3)c(=O)c2c1C	0.45	·
CC(NC(=O)COc1ccc(C#N)cc1)C1CC2CCC1C2 (stereo unspecified)	0.21	0.3
N=P(N1CCOCC1)(N1CCOCC1)C12CC3CC(CC(C3)C1)C2	·	-0.5
CC1CC(C)CN(C(=O)COC(=O)c2cc(Cl)cc(Cl)c2)C1 (stereo unspecified)	0.12	-0.95
CCOC(=O)c1cc(NC(=O)CC(C)(C)CC(=O)O)ccc1N1CCCCC1	-0.93	0.25
COc1ccc(N2CCN(CCN3CCCCC3)CC2)cc1	·	-0.1
SMILES	Ba CapD inh	AID504770
S=C(Nc1ccc(Cl)cc1)NN1CCOCC1	·	2
NC(=O)NC(=O)/C=C/c1ccccc1O	·	-0.9
CC1=CC(=C2C(=O)c3ccccc3C2=O)C=C(C)N1C(C)C	·	-0.3
O=C(CSc1nc2ccccc2o1)Nc1cccc(C(F)(F)F)c1	0.31	·
Cc1cc(Br)ccc1SCC(=O)OCC(=O)NC1CC1	-0.58	-0.45
NS(=O)(=O)c1ccc(CCNC(=O)c2ccc3c(=O)n(Cc4ccco4)c(=S)[nH]c3c2)cc1	0.29	·
CCn1c2ccccc2c2cc(/C=C3\CCC(C4CCCC4)C3=O)ccc21 (stereo unspecified)	-0.87	-0.75
Cc1ccc(-n2nc(CN3CCOCC3)c(-c3ccccc3)c2N)c(C)c1	0.06	-0.9
COc1ccc(OC)c(/C=N/NC(=O)Cc2nc3ccccc3[nH]2)c1	·	0.05
COc1ccc(CCNC(=O)CSc2nc3n[nH]c(C)c3c(=N)n2-c2cccc(Cl)c2C)cc1OC	0.75	·
O=C1CCC(C(=O)NNc2c(F)c(F)cc(F)c2F)=NN1	·	-0.05
CN(CCOC(=O)c1cc(Cl)cc(Cl)c1)c1ccc(C#N)cn1	1.3	0.4
CC1(C)CC(=O)C2=C(C1)c1c(ccc3ccccc13)NC2c1ccc(OCc2ccccc2F)cc1 (stereo unspecified)	64	·
O=C1c2ccccc2-c2onc3c(N4CCCC4)cc(Nc4ccccc4)c1c23	0.02	·
CN(C)CCNc1nc(-c2ccc([N+](=O)[O-])cc2)nc2ccccc12	-0.1	·
O=C(NCc1ccccc1)c1noc2c1CCc1ccccc1-2	-0.58	2
CCN1C(=O)/C(=C(/C#N)C(=O)C(C)(C)C)c2ccccc21	·	0.85
CN(Cc1ccccc1)C(=O)COc1ccc(-n2ccnc2)cc1	·	-1.2
CC1CCC2(CC1)NC(=O)N(NC(=O)COC(=O)CCc1ccccc1)C2=O (stereo unspecified)	·	-0.4
O=C(O)c1ccccc1N(Cc1ccccc1)C(=O)COc1ccccc1	0.28	0.45
O=c1c2ccccc2n2c(=O)[nH]nc2n1Cc1ccc(F)cc1	-1.1	0.65
CC1CCc2sc(NC(=O)C3CC3)c(C#N)c2C1 (stereo unspecified)	·	0
O=C(O)c1cncc(Br)c1	0.53	0.35
c1ccc(-c2cnc(-c3cccs3)o2)cc1	·	0.1
COC(=O)/C(=C/c1c[nH]c2ccccc12)NC(C)=O	27	-0.25
SMILES	Ba CapD inh	AID504770
O/N=C/c1cn(-c2ccccc2)nc1-c1cccs1	2.7	0.1
COc1ccc(C2C3C(=O)N(c4ccc(C)cc4)C(=O)C3N3CCCN23)cc1 (stereo unspecified)	0.61	·
O=C1C(Nc2ccccc2)=C(n2nnc3ccccc32)C(=O)c2ccccc21	0.95	-0.1
O=C(Nc1ccc(-c2noc(-c3ccccc3Br)n2)cc1)c1cccs1	-0.11	·
O=C(NC1(CCCO)CSCC1O)c1ccccc1 (stereo unspecified)	-0.47	·
Nn1cnnc1SCc1ccccc1Oc1ccccc1	·	-0.6
Cn1c2c(c(=O)n(C)c1=O)C(c1ccc(OC(=O)c3ccc(Br)cc3)cc1)C1C(=O)c3ccccc3C1=N2 (stereo unspecified)	-0.28	·
CCOc1ccc(C(=O)Nc2ccc3c(c2)C(=O)N(C)C3=O)cc1	·	-0.95
CCOc1ccccc1NC(=O)CSc1nc2nccnc2c(=O)n1Cc1ccc2c(c1)OCO2	-0.52	-0.35
CCCC(=O)Nc1nc2c(s1)CC(C)CC2 (stereo unspecified)	i	2.2
Cc1[nH]c2ccccc2c1C1=CCN(S(=O)(=O)c2ccccc2)CC1	-0.15	-1.3
CC(C)C(=O)N1CCN(C2c3ccccc3CC2NS(=O)(=O)c2ccccc2)CC1 (stereo unspecified)	·	-0.05
CCOC(=O)CN1C(=O)C(O)(CC(=O)c2ccc(OC)c([N+](=O)[O-])c2)c2ccccc21 (stereo unspecified)	-0.56	·
c1nc(N2CCCC2)c2[nH]cnc2n1	-0.61	-0.95
N#C/C(C(=O)N1CCCCC1)=C1/SC=C(c2ccccc2)N1c1ccccc1	0.6	-0.8
CC(=O)Nc1ccc(NC(=O)C2(c3ccccc3)CCCC2)cc1	-0.055	0.1
O=C(Nc1cccc(C(F)(F)F)c1)Nc1nc2ccccc2[nH]1	·	-0.85
COc1cccc(-c2nc(COC(=O)c3cc(C)on3)cs2)c1OC	·	1.8
COc1ccc(C(=O)[C@@H]2[C@@H](c3ccc(OC)c(OC)c3)C(C#N)(C#N)[C@H]3C=Cc4ccccc4N23)cc1	-0.06	·
Cc1ccc(NC(=S)NCc2cccnc2)c(C)c1	-0.42	·
CN1C2CCC1CC(NC(=O)CSCc1ccc(Cl)cc1)C2 (stereo unspecified)	0.17	0.35
CCCN(CCC)C(=O)CSc1nnc(-c2cc3sccc3n2C)n1-c1c(C)cc(C)cc1C	-0.11	-0.6
O=C1CC(C2CCCO2)C(=O)N1c1cccc(C(F)(F)F)c1 (stereo unspecified)	-0.14	-0.35
Cc1ccc(CCNC(=O)Cn2ncc3c(=O)oc4ccc(C)cc4c32)cc1	0.33	-4
Clc1ccc(-c2cc3ccccc3[nH]2)cc1	112	·
SMILES	Ba CapD inh	AID504770
NS(=O)(=O)c1ccc(-c2ccc(/C=C3\C(=O)Nc4cc(Cl)ccc43)o2)cc1	·	0.2
CCc1cc2c(SC(C)C(N)=O)ncnc2s1 (stereo unspecified)	·	-1
Clc1ccc(NCc2ccccc2)cc1	-0.085	-1.1
CCCCN(C)S(=O)(=O)c1ccc(NC(=O)c2ccncc2)cc1	·	-0.25
COc1ccc2oc(=Nc3ccc(C(=O)O)cc3)c(C(=O)Nc3ccccc3)cc2c1	0.6	·
CCc1ccc(-c2nn(-c3cc(N4CCOCC4)ccc3[N+](=O)[O-])c(=O)c3ccccc23)cc1	0.32	·
CCOc1ccc(C2C(C#N)=C(N)Oc3c2ccc(=O)c2c(C)oc(C)c32)cc1 (stereo unspecified)	0.61	-0.35
CCCn1c(SCC(=O)Nc2cccc(CC)c2)nc2c(oc3ccccc32)c1=O	·	-0.05
Cc1csc(=Nc2cccnc2)n1CC1CCCCC1	·	1
CC(=O)N1c2c(cc(Br)cc2S(=O)(=O)CCC(=O)NC2CCCC2)CC1C (stereo unspecified)	-0.64	-0.15
Cc1ccc(C)c(C(=O)CSc2n[nH]c(-c3ccncc3)n2)c1	-0.11	·
COc1ccc(-c2ccc(/C=c3\sc4nc5cc(C)c(C)cc5n4c3=O)o2)c([N+](=O)[O-])c1	-0.14	·
Cc1ccc(NC(=S)Nc2ccc(N3CCOCC3)cc2)cc1C	-0.56	-0.8
CCC(=O)N1CCc2cc(S(=O)(=O)NC(CC(C)C)C(=O)NC3CCCC3)ccc21 (stereo unspecified)	-1.2	-0.6
C=CCn1c(SCC(N)=O)nnc1-c1cccs1	1.4	-0.9
O=C(CSc1nc(-c2ccccc2)[nH]c1-c1ccccc1)Nc1ccccc1	-0.35	2.1
O=[N+]([O-])c1ccc(Oc2cc(Cl)cc(Cl)c2)c(Br)c1	-0.73	·
Fc1ccc(C=Nc2ccc3ccccc3c2)cc1	47	-1.1

Shown as comma-separated lines: 15 of the compounds above
SMILES,Ba CapD inh,AID504770
CCOC(=O)CN1C(=O)C(O)(CC(=O)c2ccc(OC)c([N+](=O)[O-])c2)c2ccccc21 (stereo unspecified),-0.56,·
c1nc(N2CCCC2)c2[nH]cnc2n1,-0.61,-0.95
N#C/C(C(=O)N1CCCCC1)=C1/SC=C(c2ccccc2)N1c1ccccc1,0.6,-0.8
CC(=O)Nc1ccc(NC(=O)C2(c3ccccc3)CCCC2)cc1,-0.055,0.1
O=C(Nc1cccc(C(F)(F)F)c1)Nc1nc2ccccc2[nH]1,·,-0.85
COc1cccc(-c2nc(COC(=O)c3cc(C)on3)cs2)c1OC,·,1.8
COc1ccc(C(=O)[C@@H]2[C@@H](c3ccc(OC)c(OC)c3)C(C#N)(C#N)[C@H]3C=Cc4ccccc4N23)cc1,-0.06,·
Cc1ccc(NC(=S)NCc2cccnc2)c(C)c1,-0.42,·
CN1C2CCC1CC(NC(=O)CSCc1ccc(Cl)cc1)C2 (stereo unspecified),0.17,0.35
CCCN(CCC)C(=O)CSc1nnc(-c2cc3sccc3n2C)n1-c1c(C)cc(C)cc1C,-0.11,-0.6
O=C1CC(C2CCCO2)C(=O)N1c1cccc(C(F)(F)F)c1 (stereo unspecified),-0.14,-0.35
Cc1ccc(CCNC(=O)Cn2ncc3c(=O)oc4ccc(C)cc4c32)cc1,0.33,-4
Clc1ccc(-c2cc3ccccc3[nH]2)cc1,112,·
NS(=O)(=O)c1ccc(-c2ccc(/C=C3\C(=O)Nc4cc(Cl)ccc43)o2)cc1,·,0.2
CCc1cc2c(SC(C)C(N)=O)ncnc2s1 (stereo unspecified),·,-1
